# Screening data deposited in PubChem by several laboratories.
# B2AR ag = human beta-2 adrenergic receptor agonism by FAP; 340,000 tested, 0.43% active; P07550; Am2.2-beta2AR cells, FAP receptor internalization, flow cytometry; reference of the scale not given here; response, % (concentration not given with the values);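 active means response above a set limit, near 3 SD of response in nonfluorescent compounds, cut at about 42% in these data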;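 further: stock transfer was 100 nL into about 11 µL; a reference agonist was the positive control; negative values mostly stem from fluorescent compounds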
# Target sequence (P07550 whole entry, looked up): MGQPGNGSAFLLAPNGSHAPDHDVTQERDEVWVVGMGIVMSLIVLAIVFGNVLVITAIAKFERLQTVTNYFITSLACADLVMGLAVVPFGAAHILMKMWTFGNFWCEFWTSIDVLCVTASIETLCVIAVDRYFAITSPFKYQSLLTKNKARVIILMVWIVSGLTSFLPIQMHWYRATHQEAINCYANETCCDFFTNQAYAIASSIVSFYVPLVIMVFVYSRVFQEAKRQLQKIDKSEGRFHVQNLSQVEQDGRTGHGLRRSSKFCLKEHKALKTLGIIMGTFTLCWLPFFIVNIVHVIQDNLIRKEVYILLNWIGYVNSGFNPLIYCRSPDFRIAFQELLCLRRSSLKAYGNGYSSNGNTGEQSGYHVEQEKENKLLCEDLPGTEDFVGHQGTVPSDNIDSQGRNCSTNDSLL
# UCH37 inh = inhibitors of human deubiquitinating enzyme UCH37; Q9Y5K5; purified proteasome/UCH37, Ub-AMC cleavage fluorescence; inhibition, % (no concentration beside the values); 330,000 tested, 0.33% active; AID 588478;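 active means mean of two replicates above 20%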;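 further: 0% = compound-free wells with enzyme and 100% = wells lacking proteasome; stock transfer was 100 nL into about 20 µL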
# Target sequence (Q9Y5K5 whole entry, looked up): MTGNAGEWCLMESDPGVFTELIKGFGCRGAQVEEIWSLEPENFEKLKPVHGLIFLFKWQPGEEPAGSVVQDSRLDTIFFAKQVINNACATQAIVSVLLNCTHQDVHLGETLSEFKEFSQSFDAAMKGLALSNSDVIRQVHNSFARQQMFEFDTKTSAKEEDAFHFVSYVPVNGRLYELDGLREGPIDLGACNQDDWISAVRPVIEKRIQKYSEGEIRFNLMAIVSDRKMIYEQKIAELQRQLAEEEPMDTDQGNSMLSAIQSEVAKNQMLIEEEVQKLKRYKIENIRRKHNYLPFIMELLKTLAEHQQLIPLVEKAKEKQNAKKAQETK
#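 Test system – human UCH37 enzyme supplied as purified proteasome complex · Incubation – 30 min preincubation with enzyme, 25 min cleavage at room temperature · Detection – AMC fluorescence from Ub-AMC cleavage, excitation 355 nm, emission 460 nm · Benchmarks – no-proteasome wells (full inhibition) and compound-free wells (no inhibition)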
# ALR inh = human ALR oxidase inhibition via reduced H2O2; inhibition, % (test concentration not listed); purified ALR, DTT oxidation, H2O2 HRP-luminol luminescence; P55789; 290,000 tested, 3.8% active;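 active means mean and each replicate at 75% or more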;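 further: stock transfer was 7.5 nL into about 7.5 µL; 0% = neutral wells and 100% = wells with inactivated enzyme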
# Target sequence (P55789 whole entry, looked up): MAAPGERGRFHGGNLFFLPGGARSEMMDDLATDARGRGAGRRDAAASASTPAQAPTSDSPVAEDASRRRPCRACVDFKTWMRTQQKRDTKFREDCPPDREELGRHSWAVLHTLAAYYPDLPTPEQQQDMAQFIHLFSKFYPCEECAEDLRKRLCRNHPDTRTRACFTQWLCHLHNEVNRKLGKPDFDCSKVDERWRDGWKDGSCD
# FGF22 binding = FGF22 (human) thermal shift binding. Q9HCT0. recombinant FGF22 thermal shift, SYPRO orange fluorescence; percent of sucrose octasulfate shift, DMSO zero. calls only at 9.99 µM. 340,000 tested, 1.5% active. AID 651658;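 active means melting point raised past a set limit in the mean and every replicate; three in four hits are not shown here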
# Ecoli rRNA inh = inhibitors of bacterial rRNA selective over humanized ribosomes; E. coli WT GFP vs humanized-ribosome RFP mutants, fluorescence, 24 h; active compounds read low; DMSO median 0, no signal -100; GFP signal change (wild-type ribosome), % (test concentration not listed); AID 720706; 350,000 tested, 1.6% active;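 active means significant combined selectivity score with lowered wild-type GFP, culture density cut under 30%, mutant RFP and density less affected; inactive means any of these conditions unmet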; further: one replicate is shown; some compounds called inactive have numbers as strong as hits
# Ecoli growth = E. coli growth inhibition | Escherichia coli growth, OD600, 23 h; active compounds read low | OD600 absorbance (concentration not given with the values) | 330,000 tested, 0.21% active;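 active means OD600 absorbance below the run mean of sample wells minus 3.6 SD, in any replicate, cut at about 0.56 in these data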;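 further: stock transfer was 300 nL into about 60 µL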
# HNF4A DNA FP = change in binding of human HNF4 alpha to DNA | HNF4a-FITC DNA binding, fluorescence polarization, 1 h | 360,000 tested, 0.3% active | AID 1224865 | activity change, % at 10 µM; in the data active means activity change above about 30%, passing the limit was not always enough;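 further: controls were the assay level and a saturating level of protein; the project sought stronger binding though the title names inhibitors; some compounds called inactive have numbers as strong as hits; positive values seem to mean higher polarization but the record does not say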
# Ecoli rRNA inh OD600 = recorded beside Ecoli rRNA inh, whose call it bears; OD600 change, %; measured here: OD600 growth;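 optical density of the mix in the first replicate; 0 = DMSO median and -100 = no signal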
# Ecoli rRNA inh RFP = also measured in Ecoli rRNA inh; calls as there; RFP signal change, %; measured here: RFP humanized mutant strains;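 first replicate; 0 = DMSO median and -100 = no signal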
# * hit, by the source's call; i = inactive; nt = no result given. A portion of the library (hit frequency here may not be typical).
SMILES,B2AR ag,UCH37 inh,ALR inh,FGF22 binding,Ecoli rRNA inh,Ecoli rRNA inh OD600,Ecoli rRNA inh RFP,Ecoli growth,HNF4A DNA FP
c1ccc2c(CCNC3CCCCC3)c[nH]c2c1,-1,6.4,-6,i,12,7,1.5,0.71,1.2
O=C(NC1CCCCC1)N1Cc2ccccc2-n2nncc2C1,-2,nt,nt,i,18,8,1.9,nt,-1.7
CCCCn1c(=O)c(C(=O)NCc2ccco2)c(O)c2ccccc21,-3,-1.7,-3,i,14,-16,-3.6,0.7,-3.0
CCN1CCN(c2ccc(N)cc2)CC1,-5,1.3,94*,i,13,14,0.3,0.71,-3.0
CCCCn1c(=O)c(C=Nc2ccc(Cl)cc2)c(O)n(Cc2ccco2)c1=O,4,-47,23,i,1,8,2.7,0.72,-0.8
C1CC2NCCC3NCCC(N1)N32 (centres undefined),-4,1.9,2,i,12,10,-0.7,0.67,2.8
Cc1ccsc1C(=O)C1CCCN(Cc2cccn2-c2ccccn2)C1 (centres undefined),2,-2.0,-14,i,3,1,-9.7,0.67,3.0
O=C1CSC2(CN3CCC2CC3)N1 (centres undefined),1,-5.9,-3,nt,nt,nt,nt,0.77,2.0
Cn1c(O)c(C=NC2CCN(Cc3ccccc3)CC2)c(=O)[nH]c1=O,-8,3.1,nt,i,0,4,1.5,0.65,-2.6
CNC(C(=O)c1ccccc1)C(OC)c1ccc(C)cc1 (centres undefined),3,1.1,-5,nt,nt,nt,nt,0.69,1.0
CN1CCN(C(=O)COc2ccc(S(=O)(=O)Nc3ccc(Cl)cc3)cc2)CC1,nt,nt,nt,i,10,6,2.3,nt,1.3
Cc1ccc2nc3c(cc2c1)CC1(C(=O)N(C)C(=O)N(C)C1=O)C1COCCN31 (centres undefined),-3,-6.3,-35,nt,nt,nt,nt,0.71,0.5
CC(=O)OC1CC(OC2C(O)CC(OC3C(O)CC(OC4CCC5(C)C(CCC6C5CCC5(C)C(C7=CC(=O)OC7)C(O)CC65O)C4)OC3C)OC2C)OC(C)C1OC1OC(CO)C(O)C(O)C1O (centres undefined),-3,nt,nt,i,20,11,0.8,nt,-0.7
CC(=NCCCN1CCOCC1)c1c(O)n(Cc2ccccc2)c(=O)[nH]c1=O,1,1.8,nt,nt,nt,nt,nt,0.71,-1.6
CNC(=O)c1cccn(Cc2ccc(C(F)(F)F)cc2)c1=O,1,-31,-1,i,-2,-5,-5.0,0.67,0.4
CNP(=S)(NC)OCCOc1ccc(OC)cc1,-9,2.0,2,nt,nt,nt,nt,0.77,2.6
COc1ccc(CC2(CCc3ccccn3)C(=O)NC(=O)N(c3ccccc3C)C2=O)cc1OC (centres undefined),-3,-1.9,-1,i,7,5,0.8,0.71,-5.5
CC(C)OP(=O)(OC(C)C)C(O)c1ccc(Br)cc1 (centres undefined),6,2.5,32,nt,nt,nt,nt,0.7,0.8
Nc1c(Br)cc2c3c(cccc13)-c1ccccc1-2,nt,-6.3,nt,i,-44,-68,-14,0.7,nt
CCC1(C)CC(CCNCc2ccc(N(C)C)cc2)(c2ccc(F)cc2)CCO1 (centres undefined),13,1.7,18,i,-8,-15,3.6,0.69,2.6
CCOc1cc(/C=C2/C(=O)ON=C2C)ccc1OCc1ccc(F)cc1,27,1.6,16,nt,nt,nt,nt,0.72,0.9
COc1ccc(C(O)c2ccccc2OP(=O)(N(C)C)N(C)C)cc1 (centres undefined),-1,1.7,0,nt,nt,nt,nt,0.65,-0.3
CN(C)CC#CCn1c2ccccc2c2ccccc21,3,4.6,-32,i,-34,-29,-1.9,0.59,3.0
CN1CCN(c2ncnc3c2cnn3C)CC1,-9,2.2,-3,i,9,9,0.9,0.64,2.9
CCSc1nnc([C@@H](N)Cc2c[nH]c3ccccc23)o1,0,2.8,-10,nt,nt,nt,nt,0.71,0.1

# Whole records as entered above. Screens in order: B2AR ag | UCH37 inh | ALR inh | FGF22 binding | Ecoli rRNA inh | Ecoli rRNA inh OD600 | Ecoli rRNA inh RFP | Ecoli growth | HNF4A DNA FP
# CC(C)OP(=O)(OC(C)C)C(O)c1ccc(Br)cc1 (centres undefined) across the screens: 6 | 2.5 | 32 | nt | nt | nt | nt | 0.7 | 0.8
# CNC(=O)c1cccn(Cc2ccc(C(F)(F)F)cc2)c1=O across the screens: 1 | -31 | -1 | i | -2 | -5 | -5.0 | 0.67 | 0.4

# (next part)
SMILES,B2AR ag,UCH37 inh,ALR inh,FGF22 binding,Ecoli rRNA inh,Ecoli rRNA inh OD600,Ecoli rRNA inh RFP,Ecoli growth,HNF4A DNA FP
CC(C)c1ccc(-n2c(O)c(C=NC(CCS(C)=O)C(=O)O)c(=O)[nH]c2=S)cc1 (centres undefined),6,13,15,i,3,8,5.2,0.71,1.0
O=C(c1ccco1)N1Cc2ccccc2-n2nncc2C1,nt,nt,nt,i,2,7,0.7,nt,1.8
NC(=O)C1CCN(/C=C2\C(=O)NC(=O)N(Cc3ccco3)C2=O)CC1,1,1.1,1,i,26,14,-3.6,0.71,1.2
CCOc1cc(CNCCc2c[nH]c3ccccc23)cc(Cl)c1OCC,18,3.8,-4,i,-31,-48,-0.1,0.63,4.0
CCC12CN3CCN(CC(C3)C1O)C2 (centres undefined),-6,1.5,-3,nt,nt,nt,nt,0.65,2.4
CCC(C)(O)C(=O)OC1C(=O)OC2CC3C(C)=CC(O)C(O)C3(C)C3C4(O)OCC23C1C(C)C4O (centres undefined),nt,nt,nt,i,8,11,11,nt,0.1
Cn1c(O)c(Cc2ccc(OCc3ccccc3)cc2)c(=O)n(C)c1=O,-1,6.1,9,i,5,1,-4.8,0.66,-2.1
Cc1sc2ncn(CC(=O)NCC(=O)N3CCC4(CC3)OCCO4)c(=O)c2c1C,-5,3.7,-18,nt,nt,nt,nt,0.72,-1.9
CCN(CC)S(=O)(=O)c1ccc(C)c(NCC(=O)Nc2ccc(C#N)c(Cl)c2)c1,4,3.5,-5,nt,nt,nt,nt,0.69,-1.4
CC(C(O)c1ccccc1)N(C)CCn1cnc2c1c(=O)n(C)c(=O)n2C (centres undefined),-3,-0.1,-8,i,6,-8,-1.0,0.73,-0.1
CCN(CC)CCCN=C(C)c1c(O)n(-c2ccc(C)cc2)c(=O)[nH]c1=O,-2,1.1,-9,i,15,13,-8.3,0.64,-1.7
c1ccc(NC2=NCCCS2)cc1,-7,0.6,7,i,6,9,-1.9,0.67,-1.0
O=C1OCCN1P(=O)(c1ccccc1)c1ccccc1,25,6.2,0,nt,nt,nt,nt,0.75,1.5
COCC(C)OC(=O)c1c(N)n(Cc2ccco2)c2nc3ccccc3nc12 (centres undefined),-7,i,nt,nt,nt,nt,nt,0.76,-4.2
Clc1cc(Cl)cc(NC2=NCCS2)c1,-10,3.7,nt,i,-26*,-18*,-2.9*,0.61,1.0
CS(=O)(=O)NNP(=O)(NNS(C)(=O)=O)NC(=O)c1ccc(Br)cc1,1,3.3,6,i,-6,-10,-2.0,0.72,2.0
O=c1[nH]c(=S)n(C2CC2)c(O)c1C=Nc1cccc(C(F)(F)F)c1,-9,12,-1,i,2,2,-7.5,0.68,0.5
COC(=O)C1=C(C(=O)OC)C2c3ccccc3C1c1ccccc12,5,4.6,nt,i,-11,-2,4.5,0.7,-1.3
CCOP(=O)(OCC)C(O)c1ccc(OC)c(OC)c1 (centres undefined),-5,-0.1,99*,nt,nt,nt,nt,0.79,0.2
C1=C(c2ccccc2)CCNC1,1,1.1,3,i,4,-9,-2.6,0.65,9.6
CC(C)c1ccc(-n2c(O)c(C=NCCN3CCNCC3)c(=O)[nH]c2=S)cc1,-6,9.0,1,i,10,12,5.5,0.65,2.5
COC(=O)C1=C(c2ccc(OC)c(OC)c2)C[C@@H]2CC[C@H]1N2C(=O)NCc1cc(C)oc1C(F)(F)F,-4,2.8,-13,i,-8,-24,0.3,nt,-2.3
CC1OC(NCCc2ccccc2)C(O)C(O)C1O (centres undefined),3,3.6,-2,nt,nt,nt,nt,0.69,-1.3
O=c1[nH]c(=O)n(-c2cccc(Cl)c2)c(O)c1C=NCCN1CCCCC1,3,3.1,-6,i,10,-2,3.0,0.66,3.3
C(=NC12CN3CN(CN(C3)C1)C2)c1cccs1,2,-0.1,8,i,5,-11,-4.7,0.7,-1.9
SMILES,B2AR ag,UCH37 inh,ALR inh,FGF22 binding,Ecoli rRNA inh,Ecoli rRNA inh OD600,Ecoli rRNA inh RFP,Ecoli growth,HNF4A DNA FP
O=P(O)(O)/C=C(\Cl)c1ccccc1,2,0.6,0,nt,nt,nt,nt,0.67,0.8
CC(=NCc1ccco1)c1c(O)n(-c2ccc(Cl)cc2)c(=O)[nH]c1=O,0,-0.8,-12,i,7,10,-2.7,0.66,-1.7
N#Cc1cn(C2OC(CO)C(O)C2O)c2ncnc(N)c12 (centres undefined),-13,nt,nt,i,19,15,-2.0,nt,5.6
COc1ccc(-n2c(O)c(C(C)=NCC3CCCO3)c(=O)[nH]c2=O)cc1 (centres undefined),0,4.5,-3,i,7,11,-1.9,0.68,3.3
CC12CN3CC(C)(CN(C1)C3c1ccco1)C2=O (centres undefined),-4,2.7,-1,nt,nt,nt,nt,0.73,-2.8
CN1CCc2nc3sc(C(=O)NC(C)(C)C)c(N)c3cc2C1,-9,3.3,-16,nt,nt,nt,nt,0.69,-4.2
CC(=O)Nc1ccccc1C(=O)OCc1ccc(C(=O)c2ccccc2)cc1,-10,2.3,-6,nt,nt,nt,nt,0.7,-4.5
C=CCn1c(O)c(C(CC)=Nc2ccc3c(c2)CCC3)c(=O)[nH]c1=O,-9,0.7,0,i,-6,1,0.6,0.7,-1.6
O/N=C1/C(=C\c2ccccc2)N2CCC1CC2,1,nt,0,nt,nt,nt,nt,nt,2.0
S=C(NCCc1ccccc1)N1Cc2cc(N3CCOCC3)ccc2-n2nncc2C1,nt,nt,nt,i,-10,-24,-6.5,nt,-1.7
CCCCCCn1c(O)c(C=NCCN2CCOCC2)c(=O)[nH]c1=O,-4,-1.0,0,i,3,4,0.0,0.69,10
COc1ccc(OCC(=O)N2CCCC(N3CCN(c4ccccc4C)CC3)C2)cc1 (centres undefined),-8,-0.2,24,i,2,-22,-0.9,0.69,4.3
O/N=C1\CCC2CN(C3CCCCC3)CC2C1 (centres undefined),4,nt,-8,nt,nt,nt,nt,nt,2.0
CCOP(=O)(OCC)C1(O)C(=O)Nc2ccccc21 (centres undefined),4,-5.0,-7,nt,nt,nt,nt,0.69,-0.1
Cc1ccc(-c2nc3ccccc3c(=O)n2-c2ncccc2C)cc1,-20,-0.9,24,nt,1,-5,4.1,0.71,2.0
O=[N+]([O-])c1ccc(N2CCOCC2)c2cccnc12,8,8.6,-16,i,0,2,3.0,0.69,4.1
O=C(c1ccc(Cl)cc1)C1CCCN(Cc2cccc3cnccc23)C1 (centres undefined),3,4.4,-2,i,-25*,-11*,7.4*,0.65,-2.5
COC(=O)C1=C(c2ccc(OC)c(OC)c2)C[C@@H]2CC[C@H]1N2C(=O)NCCOc1ccccc1Cl,0,-2.0,-2,i,-18,-16,-8.2,nt,0.6
CC(=NCCc1c[nH]c2ccccc12)c1c(O)n(Cc2ccccc2)c(=O)[nH]c1=O,-3,-0.9,-1,nt,23,18,3.9,0.69,6.8
COc1ccc(CCNC2CCCCC2)cc1OC,-1,0.3,1,i,18,5,9.7,0.62,-2.4
CC(N)Cc1c[nH]c2c1ccc1ccccc12 (centres undefined),15,2.5,-12,i,-8,-9,14,0.64,2.8
O=S(=O)(c1ccccc1)N1CN2CCN(C2)C1,-12,3.6,1,nt,nt,nt,nt,0.66,2.5
